Bioassay records deposited in PubChem by several laboratories.
Mtb growth – M. tuberculosis H37Rv growth inhibitors, H37Rv strain (AID 1626). 220,000 tested, 0.95% active. M. tuberculosis H37Rv growth inhibition; higher % means a stronger effect. one-dose inhibition, % at 10 µM; IC50 in µM for titrated hits;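 active means confirmed in a dose series; inconclusive means inhibition above 80% but not taken into the dose series; inactive means below 80% or under 30% at every dose of the series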;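 further: bacteria incubated seven days before Alamar blue readout; 0% = bacteria only wells and 100% = bacteria with antibiotic wells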
Arbovirus anti – antivirals against arbovirus infection, primary screen, cell-based, full library, 10K replicate subset. arbovirus infection cell-based antiviral screen. inhibition, % at 10 µM. 200,000 tested, 0.37% active. AID 1251, 2008;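 active means inhibition from about 30%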;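 further: bluetongue infection of BSR cells; cell survival read as ATP light after 72 h; 0% = infected wells without compound and 100% = uninfected wells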
YopH inh – YopH tyrosine phosphatase inhibitors, primary screen, biochemical, fluorescence Ex485/Em525; AID 898, 2007; YopH tyrosine phosphatase [Yersinia enterocolitica]; inhibition, %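 (about 10 µM by stock and volumes)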; 140,000 tested, 0.16% active;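 active means inhibition of 50% or more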;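 further: controls were vehicle for no effect and minimum signal wells for full effect; inactives centre near -20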
Mtb betalactam – beta-lactam sensitization of Mtb H37Rv, H37Rv | M. tuberculosis H37Rv growth with meropenem, percent inhibition; hits of this screen are not shown here | inhibition, % at 25 µM | 330,000 tested, 0.27% active;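 active means about 74% or more and at least 40 points above the plate without the antibiotic, then above 30% in a dose series; inconclusive means first-round hits that could not be retested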;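 further: growth measured after seven days incubation then overnight dye step; 0% = bacteria only wells and 100% = bacteria with antibiotic; twin plates without the antibiotic show which effects depend on it; some results filed as inactive read as strong as hits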
RecA intein inh – Mtb RecA intein splicing inhibitors, primary screen, biochemical, fluorescence, HTS; inhibition, %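 (about 9 µM by stock and volumes)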; Protein RecA (Mycobacterium tuberculosis (strain ATCC 25618 / H37Rv)), P9WHJ3; cell-free RecA intein splicing; 290,000 tested, 0.75% active; in the data active means inhibition above about 30%; inconclusive means no clear call, values can overlap the other calls;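 further: 0% = vehicle wells and 100% = reference inhibitor control wells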
Target sequence (P9WHJ3 whole entry, looked up): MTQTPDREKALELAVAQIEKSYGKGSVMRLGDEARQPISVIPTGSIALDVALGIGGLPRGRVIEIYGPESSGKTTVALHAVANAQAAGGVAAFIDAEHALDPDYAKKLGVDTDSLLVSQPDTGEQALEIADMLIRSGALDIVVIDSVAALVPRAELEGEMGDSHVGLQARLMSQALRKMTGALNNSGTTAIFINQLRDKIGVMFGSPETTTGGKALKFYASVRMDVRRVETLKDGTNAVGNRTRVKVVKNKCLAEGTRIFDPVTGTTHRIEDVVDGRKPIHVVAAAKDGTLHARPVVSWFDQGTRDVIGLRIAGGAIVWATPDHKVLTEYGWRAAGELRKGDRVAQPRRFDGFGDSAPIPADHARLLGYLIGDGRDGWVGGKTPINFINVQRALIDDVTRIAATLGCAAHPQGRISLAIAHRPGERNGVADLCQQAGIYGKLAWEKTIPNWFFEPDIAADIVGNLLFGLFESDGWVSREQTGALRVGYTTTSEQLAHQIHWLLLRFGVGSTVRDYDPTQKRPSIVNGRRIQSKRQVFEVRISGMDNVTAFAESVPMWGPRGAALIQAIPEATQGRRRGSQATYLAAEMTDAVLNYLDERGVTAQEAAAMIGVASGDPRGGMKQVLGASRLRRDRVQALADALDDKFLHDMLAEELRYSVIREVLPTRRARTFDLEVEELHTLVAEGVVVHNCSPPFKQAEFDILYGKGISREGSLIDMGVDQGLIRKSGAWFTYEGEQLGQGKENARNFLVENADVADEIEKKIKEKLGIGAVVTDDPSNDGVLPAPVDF
Arbovirus anti repeat – also measured in Arbovirus anti; calls as there; inhibition, %; measured here: 10K subset replicate screen; many hits read low in the repeat;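 first of two repeat runs on a subset; 0% = infected and 100% = uninfected wells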
* = called active by the depositor; u = inconclusive; x = not tested or not shown. Not all compounds are listed; the hit share may differ from the screen's.

The first 4 records, to show the layout:
SMILES	Mtb growth	Arbovirus anti	YopH inh	Mtb betalactam	RecA intein inh	others
Cc1ccc2[nH]c(-c3ccccc3)c(CN(C)C)c(=O)c2c1	-6%	-9	8	1	-0.6
Cc1nnc(SCc2nnc(-c3cccs3)o2)n1C	-4%	16	x	-3	-2.7
O=C(CSc1nnc(NC(=O)c2ccccc2F)s1)NC1CC1	x	x	x	14	-4.4
Cn1c(C(O)c2ccc(Br)cc2)nc(Cl)c1Cl (centres undefined)	3%	x	x	-3	x

This part in full, previewed entries included:
SMILES	Mtb growth	Arbovirus anti	YopH inh	Mtb betalactam	RecA intein inh	others
Cc1ccc2[nH]c(-c3ccccc3)c(CN(C)C)c(=O)c2c1	-6%	-9	8	1	-0.6
Cc1nnc(SCc2nnc(-c3cccs3)o2)n1C	-4%	16	x	-3	-2.7
O=C(CSc1nnc(NC(=O)c2ccccc2F)s1)NC1CC1	x	x	x	14	-4.4
Cn1c(C(O)c2ccc(Br)cc2)nc(Cl)c1Cl (centres undefined)	3%	x	x	-3	x
Cc1cccc(NC(=O)CCn2cnnn2)c1	-1%	0	x	1	x
O=C(Nc1nccs1)c1c(O)c2cccc3c2n(c1=O)CCC3	u	-2	-76	100	-1.5
CN(C)S(=O)(=O)c1cccc(NC(=O)c2cnccn2)c1	5%	0	x	-3	0.1
COc1cccc(Cn2c(C3CC3)nc3ccc(NC(=O)c4ccco4)cc3c2=O)c1	-3%	-8	-10	x	x
COCC(=O)N1CCCC(C(=O)c2ccc(Oc3ccccc3)cc2)C1 (centres undefined)	5%	-3	x	9	1.3
Cc1ccc(S(=O)(=O)NCCC(=O)OCC(=O)Nc2ccccc2Cl)cc1	x	4	x	8	-1.4
CCn1c(SCC(=O)Nc2cc(C)on2)nnc1-c1ccccc1	-11%	-3	-12	-7	-2.5
Cc1cccc2c(C(=O)O)c3cccc(C)c3nc12	x	x	x	-2	-53
O=C1c2ccccc2NC(c2cccs2)N1NS(=O)(=O)c1ccccc1 (centres undefined)	-2%	4	x	-2	x
COc1cccc(CC(NC(C)=O)C(=O)NC2CCN(S(=O)(=O)c3ccc4ccccc4c3)CC2)c1 (centres undefined)	0%	2	9	4	1.2
Cc1cccc(C(=O)Oc2ccccc2C2C[C@]3(C)CC(=O)NC3N2C(=O)c2cccc(C)c2)c1 (some centres undefined)	6%	0	1	-15	-1.0
CCN(CC)c1cc(C)c2cc(NC(=O)c3ccccc3F)ccc2n1	x	x	x	87	2.7
CCCC(=O)n1nc(-c2ccccc2)nc1SC	x	-1	-64	2	5.0
Cc1ccc(C2=NN(C(=O)CCl)C(c3cccs3)C2)o1 (centres undefined)	u	-36	-20	100	74*
COc1ccccc1N(C)S(=O)(=O)c1ccc(C(=O)N2CCCc3ccccc32)cc1	x	x	x	2	-0.3
Cn1c(=O)oc2cc(S(=O)(=O)NC(Cc3ccccc3)C(=O)N3CCCCC3)ccc21 (centres undefined)	-2%	6	-18	-3	x	Arbovirus anti repeat=-1
N=c1n(CCN2CCCCC2)c2ccccc2n1CC(=O)c1cccc([N+](=O)[O-])c1	x	x	x	13	0.3
COc1cc2[nH]c(C(=O)N3CCN(c4ccccc4F)CC3)cc2c(OC)c1OC	x	x	x	1	2.7
Cc1ccc(S(=O)(=O)Nc2cc(C)c(O)cc2C)cc1	4%	-20	x	-7	-0.3
COc1cc(NS(=O)(=O)c2ccc(NC(=O)c3ccc(F)cc3)cc2)ncn1	x	x	x	-2	1.1
Nc1nc(SCC(=O)Nc2ccc(OCc3ccccc3)cc2)n[nH]1	x	x	x	43	-0.1
CC(C)CN(C#N)c1nc(N2CCOCC2)nc(N2CCOCC2)n1	9%	-21	-20	-4	1.7
Cc1ccc(-c2cc(C(=O)Nc3cc(C)on3)c3ccccc3n2)c(C)c1	39%	12	-5	-3	-2.2	Arbovirus anti repeat=7
O=C(c1ccc(F)c(S(=O)(=O)N2CCOCC2)c1)N(CCc1ccccc1)Cc1ccccc1	x	x	x	-8	5.4
Cc1cccc(N2C(=O)CS/C2=N\NC(=O)c2ccc(Cl)cc2)c1C	1%	5	-10	3	0.5
Cc1ccc(NC(=O)NC(=O)c2ccccc2)cc1F	x	x	x	0	-3.4
COc1ccc(-c2cn3cc(C)ccc3n2)cc1OC	-4%	-8	25	-4	1.0
O=C(NCCc1ccc(F)cc1)c1n[nH]c2ccccc12	6%	1	x	-1	0.2
COc1ccc(CNC(=O)CCSc2ccc(F)cc2)cc1OC	-6%	7	x	-1	x
CCc1cccc(OCCCCNCCCOC)c1	-1%	-8	-17	u	0.4
CCCCNC(=O)CSc1nc2c(sc(=S)n2-c2cc(Cl)ccc2OC)c(=O)[nH]1	x	x	x	-2	-1.2
c1ccc(Cc2noc(CN3CCN(Cc4ccc5c(c4)OCO5)CC3)n2)cc1	2%	-15	x	-3	0.6
CC1CCC(C(C)C)C(OP(=O)(c2ccccc2)C(O)c2ccncc2)C1 (centres undefined)	5%	-9	x	-1	4.3
CC(C)Oc1ccc(S(=O)(=O)N2CCCCC2)cc1NC(=O)CN1C(=O)NC2(CCCC2)C1=O	x	x	x	5	1.5
Cc1cc(NC(=O)c2ccccc2)c(Cl)cc1N	0%	x	x	x	0.5
O=C(CSc1nnc(Nc2ccccc2)s1)NN1C(=O)NC2(CCCCC2)C1=O	0%	-2	0	6	0.7
O=C(COc1cccc(Cl)c1)Nc1ccc(N2CCOCC2)cc1	-1%	-9	-21	-5	-0.5
CN(C)c1nc(C#N)nc(N2CCOCC2)n1	1%	3	-144	3	1.2
Cc1cccn2c(=O)c3cc(C(=O)NCCC4=CCCCC4)n(C)c3nc12	x	x	x	5	-8.1
O=c1[nH]c(=O)n(Cc2ccc(F)cc2)c(O)c1C=NCC1CCCO1 (centres undefined)	-6%	5	-26	1	-2.6
COc1ccc([N+](=O)[O-])cc1-n1cccc1	2%	0	-16	0	0.4
Cc1ccc(-n2nnnc2Sc2nc([N+](=O)[O-])nn2C)cc1	1%	-8	-16	x	5.2
Cc1ccc(-n2ccn(CC(=O)NCCc3ccccc3)c(=O)c2=O)cc1C	x	x	x	5	-1.6
O=C(CSc1nnc(NC(=O)c2ccco2)s1)Nc1ccc2c(c1)OCCO2	-3%	-3	x	-3	-1.0
CCOc1ccc(N2CC(=O)SC2=S)cc1	-8%	4	-35	6	13	Arbovirus anti repeat=-3
CCOC(=O)N1CCN(c2ccc(S(=O)(=O)N(Cc3ccccc3)Cc3ccccc3)cn2)CC1	-1%	0	-10	-9	-1.6
(further entries)
SMILES	Mtb growth	Arbovirus anti	YopH inh	Mtb betalactam	RecA intein inh	others
COC(=O)c1cc(NC(=O)c2cccc(C(F)(F)F)c2)c(=O)oc1C	1%	6	x	4	-2.2
CCOc1ccccc1CN1CCNC(=O)C1CC(=O)NCCC1=CCCCC1 (centres undefined)	x	x	x	-3	5.9
CCSc1nnc(NC(=O)C(C)Sc2nc3ccccc3[nH]2)s1 (centres undefined)	-1%	4	-14	3	-1.0
CCOC(=O)C1CCCN(C(=O)CCCOc2cc(=O)n(C)c3ccccc23)C1 (centres undefined)	-2%	-2	-45	-28	-2.1
COc1ccc2c(c1OC)C(=O)N1c3ccccc3C(=O)N(c3ccc(F)cc3)C21 (centres undefined)	5%	-8	-26	0	-1.2
Cc1cc(F)ccc1S(=O)(=O)N1CCCOC1CNC(=O)C(=O)NCCC1=CCCCC1 (centres undefined)	0%	-7	-33	-3	-4.9
CCOC(=O)c1ccc(NC(=O)CSc2ccc(-c3ccncc3)nn2)cc1	78%	-12	x	63	-3.3
COc1ccc(OC)c(NC(=O)CCN2CCN(CCO)CC2)c1	x	x	x	-15	-2.0
Cn1c(=O)c2c(nc(Oc3cccc(Br)c3)n2C)n(C)c1=O	x	x	x	4	0.0
CC(=O)NC(CC(=O)OCC(=O)Nc1ccc2c(c1)OCO2)c1ccccc1 (centres undefined)	x	x	x	1	-2.0
Cc1cccc(C(=O)NCCNC(=O)c2cccnc2)c1	x	x	x	-4	3.6
CCOC(=O)/C=C/C(=O)OCc1csc(CC(=O)Nc2ccccc2C)n1	x	x	x	-7	2.8
COc1ccc(-c2nn(-c3ccccc3)cc2CNCc2cccnc2)c(F)c1	-3%	6	x	-2	-2.7
CCOc1ccc(NC(=O)CN2CCc3ccccc3C2)cc1	x	x	x	3	2.7
O=c1c2ccccc2[nH]c(=S)n1CCCn1ccnc1	x	x	x	-6	2.3
Cc1cc(=O)oc2ccc(OCC(=O)N(Cc3ccc(F)cc3)Cc3ccco3)cc12	-6%	2	0	-5	5.9
CCOC(=O)C1C2C=CC3(CN(c4cccc(Cl)c4)C(=O)C13)O2 (centres undefined)	3%	9	-49	-2	-0.7
CN=C1SC(CC(=O)Nc2ccc(C(=O)O)cc2)C(=O)N1C (centres undefined)	-8%	15	-15	8	6.8
CCOc1ncnc2c1[nH]c1ccccc12	5%	x	x	-3	1.0
COc1cc(/C=N/NC(=O)COc2ccccc2[N+](=O)[O-])ccc1OC(=O)c1ccco1	4%	3	-47	-3	-0.4
O=C(CSc1nc(Nc2ccccc2)nc(N2CCOCC2)n1)Nc1ccccc1Cl	-6%	14	9	-1	0.2
O=C(CCSCCC(=O)NCC1CCCO1)NCC1CCCO1 (centres undefined)	-13%	1	-32	0	0.7
Cc1cc(C)nc(SCC(=O)Nc2ccc(S(=O)(=O)Nc3ncccn3)cc2)n1	-7%	2	x	2	0.0
COc1ccc(/C(N)=N/OC(=O)Cc2ccc(C)cc2)cc1	16%	-4	-43	2	6.6
COc1ccc(N2CCN(C3CCCN(Cc4ccccc4OCCO)C3)CC2)cc1 (centres undefined)	x	x	x	4	-3.1
O=C(NCc1ccc(-c2csnn2)cc1)c1cccs1	-2%	x	x	-2	1.3
CCOc1ccc(N=C2SCC(=O)N2CC)cc1	x	x	x	-9	-0.7
Cc1cccc(/C=C(\c2nc3ccccc3[nH]2)S(=O)(=O)c2ccccc2)c1	-5%	-44	-11	x	6.2
CCOC(=O)C1CCN(c2c(Nc3ccc4c(c3)OCCO4)c(=O)c2=O)CC1	1%	8	-31	-4	1.0
CNC(=O)CN(Cc1ccccc1)S(=O)(=O)c1ccc(Cl)cc1	x	x	x	-2	-0.3
COc1ccc2nc(NC(=O)CSC(C)C(=O)Nc3cc(C)on3)sc2c1 (centres undefined)	x	x	x	-2	2.1
OCCC1CN(Cc2cnc(-c3ccccc3)s2)CCN1CCc1ccccc1 (centres undefined)	-2%	-1	x	0	2.3
Cc1cccc(NC(=O)CN2CCC(NC(=O)C3CCCCC3)CC2)c1C	-4%	-8	-37	0	-0.4
O=C(NS(=O)(=O)c1ccc2c(c1)OCCO2)c1ccccc1	-6%	15	-58	-1	1.1
O=C(Nc1cccnc1)C1CCCN(c2ncnc3c2nc2n3CCCCC2)C1 (centres undefined)	x	x	x	-4	-1.7
COc1cc(C(=O)Nc2ccc(O)cc2)ccc1OC(C)=O	-15%	-11	-11	-3	2.4
CN1C(=O)c2ccccc2Sc2ccc(NC(=O)N3CCCC3)cc21	0%	-10	-3	-4	-7.4
Cc1ccc(C)c(CSc2nnc(-c3cccs3)n2Cc2ccco2)c1	-1%	-12	-3	-2	20
COc1cc([N+](=O)[O-])ccc1NC(=O)C[n+]1cccc(C)c1	-11%	3	-13	3	1.4
O=C(Nc1ccccc1Cl)c1ccc(-c2ccccn2)s1	-3%	x	x	4	1.3

Already shown: two of the compounds above.
SMILES	Mtb growth	Arbovirus anti	YopH inh	Mtb betalactam	RecA intein inh	others
Cc1ccc2[nH]c(-c3ccccc3)c(CN(C)C)c(=O)c2c1	-6%	-9	8	1	-0.6
Cc1nnc(SCc2nnc(-c3cccs3)o2)n1C	-4%	16	x	-3	-2.7

The listing continues.
SMILES	Mtb growth	Arbovirus anti	YopH inh	Mtb betalactam	RecA intein inh	others
CCCCc1c(C)c(C#N)c2nc3ccccc3n2c1Cl	10µM*	-37	-24	x	20
CN(Cc1ccccc1)C(=O)CCS(=O)(=O)c1cc2c(cc1Cl)NC(=O)CO2	x	x	x	-3	3.8
COCCNC(=O)C(c1ccc(C)cc1)N(Cc1cccs1)C(=O)CCC(=O)Nc1ccccn1 (centres undefined)	x	x	x	4	-0.8
COc1cc2cc(C#N)c(SCC(=O)Nc3cc(C)on3)nc2cc1OC	x	x	x	7	0.0
Cc1ccc(-c2csc(N3CCN(CCCn4c(C(F)(F)F)nc5ccccc54)CC3)n2)cc1	x	x	x	23	1.7
O=C(COc1ncnc2c(Cl)cc(Cl)cc12)N1CCN(S(=O)(=O)c2ccccc2)CC1	-1%	-3	-14	-4	-3.4
O=[N+]([O-])c1ccc(COc2ccc(CNc3ccccc3)cc2)cc1	10%	2	-6	4	0.8
